Bioassay records as filed in PubChem.
ALR inh = blocks human ALR sulfhydryl oxidase activity; hit rate 3.8% among 290,000; purified ALR, DTT oxidation, H2O2 HRP-luminol luminescence; P55789; inhibition, % (concentration not given with the values);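 active = mean and each replicate at 75% or more; inconclusive = only one of the two met; inactive = neither met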;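 note: stock transfer was 7.5 nL into about 7.5 µL; 0% = neutral wells and 100% = wells with inactivated enzyme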
Target sequence (P55789 whole entry, looked up): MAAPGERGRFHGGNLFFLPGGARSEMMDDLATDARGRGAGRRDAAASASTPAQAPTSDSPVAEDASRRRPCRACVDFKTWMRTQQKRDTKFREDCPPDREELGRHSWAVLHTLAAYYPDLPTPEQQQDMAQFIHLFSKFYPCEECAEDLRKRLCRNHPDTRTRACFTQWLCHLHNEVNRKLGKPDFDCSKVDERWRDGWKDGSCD
HNF4A DNA FP = change in binding of human HNF4 alpha to DNA. P41235. HNF4a-FITC DNA binding, fluorescence polarization, 1 h. hit rate 0.3% among 360,000. activity change, % at 10 µM; in the data active = activity change above about 30%, passing the limit was not always enough;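 note: controls were the assay level and a saturating level of protein; the project sought stronger binding though the title names inhibitors; some compounds called inactive have numbers as strong as hits; positive values seem to mean higher polarization but the record does not say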
Ecoli growth = inhibitors of Escherichia coli growth; OD600, 23 h; active compounds read low; AID 1053175; OD600 absorbance (concentration not given with the values); hit rate 0.21% among 330,000;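 active = OD600 absorbance below the run mean of sample wells minus 3.6 SD, in any replicate, cut at about 0.56 in these data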;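 note: stock transfer was 300 nL into about 60 µL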
FGF22 binding = FGF22 (human) thermal shift binding | recombinant FGF22 thermal shift, SYPRO orange fluorescence; percent of sucrose octasulfate shift, DMSO zero | calls only at 9.99 µM | hit rate 1.5% among 340,000 | AID 651658;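 active = melting point raised past a set limit in the mean and every replicate; inconclusive = no clear call; three in four hits are not shown here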
Target sequence (Q9HCT0 whole entry, looked up): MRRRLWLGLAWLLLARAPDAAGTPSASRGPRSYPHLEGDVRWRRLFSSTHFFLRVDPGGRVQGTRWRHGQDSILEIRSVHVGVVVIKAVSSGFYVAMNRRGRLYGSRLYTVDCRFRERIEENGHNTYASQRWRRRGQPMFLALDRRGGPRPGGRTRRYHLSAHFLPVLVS
Vif A3G = HIV-1 Vif–A3G interaction blockers – biochemical, TR-FRET, GST-Vif 1-94, biotin-A3G peptide, dose response retest, primary screen (AID 1117319) | TR-FRET GST-Vif / biotin-A3G peptide binding; higher % means a stronger effect; test concentration not given here; strong numbers were not always called active | inhibition, %, or IC50 in µM where a hit was titrated | hit rate 0.57% among 260,000;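 active = above the screen mean plus three standard deviations and confirmed in dose response; inconclusive = results disagree or hit not tested in dose response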;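 note: Vif residues 1-94 fused to GST binding biotinylated APOBEC3G peptide 110-148; 0% = full assay without inhibitor and 100% = GST in place of GST-Vif; retest series ran down from 100 µM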
AF4-AF9 inh = blocks AF4 peptide binding to human AF9. P42568. AlphaScreen, biotin-AF4 peptide binding to FLAG-AF9. inhibition, % at 10 µM. hit rate 0.47% among 350,000. AID 651704;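 active = every replicate reaching a set inhibition limit, whatever the replicate mean, cut at about 25% in these data; inconclusive = mean inhibition reaches that limit but some replicates miss it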;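 note: 0% = plate neutral control median and 100% = total signal loss; the record names both 10 and 1 µM as test concentration; the first replicate is given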
Target sequence (P42568 whole entry, looked up): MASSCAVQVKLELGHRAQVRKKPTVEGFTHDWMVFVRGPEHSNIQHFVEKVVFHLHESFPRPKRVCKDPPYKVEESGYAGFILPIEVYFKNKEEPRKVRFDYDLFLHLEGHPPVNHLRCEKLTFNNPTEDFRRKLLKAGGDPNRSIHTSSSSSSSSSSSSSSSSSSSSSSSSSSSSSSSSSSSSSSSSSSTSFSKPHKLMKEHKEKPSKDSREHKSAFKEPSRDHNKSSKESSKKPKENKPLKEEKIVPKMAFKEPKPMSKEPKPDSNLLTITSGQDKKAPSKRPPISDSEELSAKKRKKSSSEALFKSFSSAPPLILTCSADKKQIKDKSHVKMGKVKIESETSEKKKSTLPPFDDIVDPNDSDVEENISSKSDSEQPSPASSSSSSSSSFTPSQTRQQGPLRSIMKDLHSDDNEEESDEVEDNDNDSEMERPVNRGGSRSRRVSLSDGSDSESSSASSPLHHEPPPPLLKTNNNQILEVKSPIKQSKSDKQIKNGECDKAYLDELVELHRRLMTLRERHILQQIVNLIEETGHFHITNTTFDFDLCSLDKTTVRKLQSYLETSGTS
Ecoli rRNA inh = inhibitors of bacterial rRNA selective over humanized ribosomes; E. coli WT GFP vs humanized-ribosome RFP mutants, fluorescence, 24 h; active compounds read low; DMSO median 0, no signal -100; GFP signal change (wild-type ribosome), % (test concentration not listed); hit rate 1.6% among 350,000;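 active = significant combined selectivity score with lowered wild-type GFP, culture density cut under 30%, mutant RFP and density less affected; inactive = any of these conditions unmet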; note: one replicate is shown; some compounds called inactive have numbers as strong as hits
Ecoli rRNA inh OD600 = also measured in Ecoli rRNA inh; calls as there; OD600 change, %; measured here: OD600 growth;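 optical density of the mix in the first replicate; 0 = DMSO median and -100 = no signal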
Ecoli rRNA inh RFP = second read-out of Ecoli rRNA inh, no call of its own (marks repeat the call); RFP signal change, %; measured here: RFP humanized mutant strains;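 first replicate; 0 = DMSO median and -100 = no signal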
* hit, by the source's call; i = inactive; u = inconclusive; x = not tested or not shown; & = joins results of further samples. Only part of the results is shown; the hit share may differ from the screen's.

(1) CC(=O)N[C@@H]1C=C[C@@H](CC(=O)NCC2CCCCC2)O[C@H]1CO
(2) Cc1ccc(NC(=O)CSc2nc3nc(C)cc(C)c3c(=O)[nH]2)cc1
(3) COc1ccc(-c2cc3c(c4c2ccn4C)C2CCC3C2)cc1OC (centres undefined)
(4) CCCCC(=O)Nc1ccc(NC(=S)NC(=O)c2cccs2)cc1OC
(5) Cn1c2ccccc2c(=O)c2c(=O)n(Cc3ccco3)c(-c3ccc(F)cc3)nc21
(6) CCOC(=O)c1sc(=S)n(-c2ccc(OC)cc2)c1C
(7) C/C(CC(=O)NCc1ccccc1)=N\NC(=O)c1cnccn1
(8) NC(=O)c1cc(C(=O)Cc2ccc(Cl)cc2)c[nH]1
compound no.	1	2	3	4	5	6	7	8
ALR inh	x	-20	x	0	-4	-2	11	-1
HNF4A DNA FP	x	0.0	1.0	5.0	4.6	-4.2	-2.0	1.4
Ecoli growth	x	0.74	x	0.73	0.65	0.69	x	0.64
FGF22 binding	i	x	i	i	i	i	x	i
Vif A3G	x	-4%	x	0%	-46%	18%	10%	-2%
AF4-AF9 inh	-1.3	x	20	3.3	-10	3.0	x	0.6
Ecoli rRNA inh	3	-6	1	x	-38*	x	x	-1
Ecoli rRNA inh OD600	16	4	-4	x	-16*	x	x	0
Ecoli rRNA inh RFP	1.0	-4.4	0.4	x	-6.5*	x	x	-5.4

(9) C[C@@H]1CCCCO[C@H](CN(C)C(=O)c2ccncc2)[C@H](C)CN([C@@H](C)CO)C(=O)c2cc(NC(=O)c3ccccc3)ccc2O1
(10) Cc1ccc(CSCc2nc3ccccc3[nH]2)cc1
(11) CN(CCc1ccccc1)C(=O)c1ccc(NC(=O)Cc2ccc([N+](=O)[O-])cc2)cc1
(12) CCCCc1ccc(NC(=O)CSC2=NN3CCCC(=O)N=C3S2)cc1
(13) O=C(C[C@H]1C=C[C@H](NC(=O)Nc2ccc(C(F)(F)F)cc2)[C@@H](CO)O1)NCc1cccc(F)c1
(14) CCCn1nc(C(=O)NCC2COc3ccccc3O2)c2ccccc2c1=O (centres undefined)
(15) C=CCn1c(C)cc(-c2csc(NC(=O)C3CCN(c4ncnc5sc(C)c(C)c45)CC3)n2)c1C
(16) COc1ccc(N2CCN(C(=O)CNC(=O)c3cccs3)CC2)cc1
compound no.	9	10	11	12	13	14	15	16
ALR inh	x	x	4	x	x	-8	x	95*
HNF4A DNA FP	2.1	-1.9	3.3	0.3	x	14	11	-1.6
Ecoli growth	x	0.61	0.71	0.71	x	0.65	0.67	0.7
FGF22 binding	i	x	i	i	i	i	i	i
Vif A3G	-6%	-11%	x	x	x	-9%	x	2%
AF4-AF9 inh	0.5&-6.1&-6.7	0.3	6.0	0.9	-0.6	-2.9	-0.8	0.2
Ecoli rRNA inh	-5&-11	-55	-5	0	0	-13	-2	12
Ecoli rRNA inh OD600	-4&11	-75	-11	0	2	-12	14	11
Ecoli rRNA inh RFP	2.7&3.3	-16	-2.1	-0.9	0.9	-5.4	11	3.1

(17) O=C(Cn1ncc2c(=O)oc3ccccc3c21)NCc1cccnc1
(18) CS(=O)(=O)N1CC(C(=O)NC2CCCC2)Oc2ccc(Cl)cc21 (centres undefined)
(19) Cc1ccc(F)c(NC(=O)C2CCCCC2C(=O)O)c1 (centres undefined)
(20) O=C(CSc1ncc(C(F)(F)F)cc1Cl)N1CCN(S(=O)(=O)c2ccccc2)CC1
(21) CCc1nnc(N2C(=O)c3ccc(Oc4ccc([N+](=O)[O-])cc4)cc3C2=O)s1
(22) COC(=O)c1sc(NC(=O)c2oc3ccccc3c2C)nc1C
(23) C[C@H](CO)N1C[C@H](C)[C@@H](CN(C)S(=O)(=O)c2ccc(Cl)cc2)Oc2ccc(NC(=O)Nc3ccccc3)cc2C1=O
(24) Cc1ccc(NC(=S)N2CCCCCC2)c(C)c1
compound no.	17	18	19	20	21	22	23	24
ALR inh	-1	0	-10	-1	93*	-6	x	-23
HNF4A DNA FP	-1.7	-1.4	-1.8	1.4	-0.1	0.9	x	0.8
Ecoli growth	0.65	0.7	0.67	0.75	0.72	0.72	x	0.69
FGF22 binding	i	x	x	x	i	x	i	i
Vif A3G	6%	u	22%	1%	x	-4%	x	5%
AF4-AF9 inh	-0.1	x	x	x	0.3	x	3.3	-0.6
Ecoli rRNA inh	12	x	x	x	7	x	-2	1
Ecoli rRNA inh OD600	7	x	x	x	3	x	1	-3
Ecoli rRNA inh RFP	1.3	x	x	x	-3.0	x	2.5	-0.7

Full records, looked up by structure. Order of values: ALR inh, HNF4A DNA FP, Ecoli growth, FGF22 binding, Vif A3G, AF4-AF9 inh, Ecoli rRNA inh, Ecoli rRNA inh OD600, Ecoli rRNA inh RFP
Results for O=C(CSc1ncc(C(F)(F)F)cc1Cl)N1CCN(S(=O)(=O)c2ccccc2)CC1 = -1, 1.4, 0.75, x, 1%, x, x, x, x
Results for C[C@H](CO)N1C[C@H](C)[C@@H](CN(C)S(=O)(=O)c2ccc(Cl)cc2)Oc2ccc(NC(=O)Nc3ccccc3)cc2C1=O = x, x, x, i, x, 3.3, -2, 1, 2.5

The results go on.
(25) COc1ccc(-c2csc(NC(=O)CN3C(=O)C4CCCCC4C3=O)n2)cc1OC (centres undefined)
(26) COc1c(F)c(F)c(C(=O)Nc2ccccc2N2CCN(C(C)=O)CC2)c(F)c1F
(27) CCO/C(C)=C1\N=C(c2ccc(Cl)cc2)OC1=O
(28) Cc1cc(NC(=O)c2cncc(Br)c2)n(-c2ccccn2)n1
(29) CCn1c(O)c(C=NCCN2CCOCC2)sc1=S
(30) Cc1ccccc1NC(=O)c1cc(S(=O)(=O)N2CCCCC2)ccc1N1CCOCC1
(31) Oc1ccc(/C=N/N(c2ccccc2)c2ccccc2)cc1O
(32) O=c1[nH]cnc(O)c1C(c1ccc([N+](=O)[O-])cc1)c1c(O)nc[nH]c1=O
compound no.	25	26	27	28	29	30	31	32
ALR inh	-6	-9	2	x	29	x	99*	-2
HNF4A DNA FP	8.0	1.4	-0.3	-4.7	-1.8	1.4	2.5	1.3
Ecoli growth	0.71	0.8	0.7	0.74	0.71	x	x	0.68
FGF22 binding	i	x	x	x	x	i	i	i
Vif A3G	-3%	68%	-7%	u	-3%	-2%	26%	x
AF4-AF9 inh	0.4	x	x	x	x	0.6	12	-21
Ecoli rRNA inh	-23	x	x	x	x	4	0	13
Ecoli rRNA inh OD600	-26	x	x	x	x	11	-1	6
Ecoli rRNA inh RFP	-7.1	x	x	x	x	2.4	0.2	2.4

(33) CN(Cc1nccn1C)C(=O)CC1C(=O)NCCN1Cc1cccc(Oc2ccccc2)c1 (centres undefined)
(34) O=C(CSc1nnc(-c2ccco2)o1)c1ccccc1
(35) COc1cc(NC(=O)c2ccccc2F)c(OC)cc1NC(=O)CN1CCOCC1
(36) COc1ccc(OC)c(NC(=S)N2CCN(C/C=C/c3ccccc3)CC2)c1
(37) OCCC1CN(CC#Cc2ccccc2)CCN1C1CCCC1 (centres undefined)
(38) O=C(N[C@@H]1CC[C@@H](CCn2cc(-c3ccc(F)cc3)nn2)O[C@H]1CO)c1cnccn1
(39) Cc1ccc(OCC(=O)NNC(=O)c2cc(S(=O)(=O)N(C)C)ccc2N2CCCC2)cc1
(40) COc1cc(C(=O)Nc2cccc(S(=O)(=O)N3CCCC3)c2)c([N+](=O)[O-])cc1OC
compound no.	33	34	35	36	37	38	39	40
ALR inh	-8	99*	-60	-17	x	x	x	-12
HNF4A DNA FP	-2.2	2.0	-1.9	-1.8	7.1	x	-1.5	-1.7
Ecoli growth	0.7	0.7	0.69	0.71	0.72	x	x	0.7
FGF22 binding	i	x	i	x	i	i	i	i
Vif A3G	1%	9%	-4%	-5%	4%	x	-1%	-4%
AF4-AF9 inh	1.8	x	1.5	x	u	0.2	-1.1	3.3
Ecoli rRNA inh	15	x	12	x	8	3	x	-1
Ecoli rRNA inh OD600	6	x	4	x	-1	8	x	1
Ecoli rRNA inh RFP	4.2	x	-1.8	x	-6.1	0.0	x	0.2

ALR inh: hit marks shown above
(16) COc1ccc(N2CCN(C(=O)CNC(=O)c3cccs3)CC2)cc1
(21) CCc1nnc(N2C(=O)c3ccc(Oc4ccc([N+](=O)[O-])cc4)cc3C2=O)s1
(31) Oc1ccc(/C=N/N(c2ccccc2)c2ccccc2)cc1O
(34) O=C(CSc1nnc(-c2ccco2)o1)c1ccccc1
compound no.	16	21	31	34
ALR inh	95*	93*	99*	99*
HNF4A DNA FP	-1.6	-0.1	2.5	2.0
Ecoli growth	0.7	0.72	x	0.7
FGF22 binding	i	i	i	x
Vif A3G	2%	x	26%	9%
AF4-AF9 inh	0.2	0.3	12	x
Ecoli rRNA inh	12	7	0	x
Ecoli rRNA inh OD600	11	3	-1	x
Ecoli rRNA inh RFP	3.1	-3.0	0.2	x

Continued:
(41) C[N+]1=C2CCCCCN2C(O)(c2ccccc2)C1 (centres undefined)
(42) O=C(O)CCc1ccc(-c2ccc(Cl)cc2)o1
(43) COc1ccccc1CNC(=O)CSc1ccc(C(=O)Nc2ccccc2OC)cc1[N+](=O)[O-]
(44) CC(=O)Nc1ccc(S(=O)(=O)N(C2=NCC(C)S2)c2ccccc2)cc1 (centres undefined)
(45) COc1ccc(NC(=O)N(C)C[C@H]2Oc3ccc(NS(C)(=O)=O)cc3C(=O)N([C@H](C)CO)C[C@H]2C)cc1
(46) Cc1sc(NC(=O)CSc2nnnn2C(C)C)c(C#N)c1C
(47) COC(=O)c1cn(NC(=O)c2cccc(N(C)C)c2)c(=O)c2ccccc12
(48) COc1cccc(CNC(=O)Cn2cc3c(n2)CCCC3)c1
(49) Cc1ccc(NC(=O)C(C)OC(=O)COc2cccc(C(F)(F)F)c2)cc1S(=O)(=O)N1CCOCC1 (centres undefined)
(50) CC1(C)CC(=O)CC(=NCC(=O)O)C1
(51) C[C@H](CO)N1C[C@H](C)[C@@H](CN(C)Cc2ccc(Oc3ccccc3)cc2)Oc2ncc(-c3ccncc3)cc2C1=O
compound no.	41	42	43	44	45	46	47	48	49	50	51
ALR inh	-2	97*	-5	-10	x	x	-5	1	x	-2	x
HNF4A DNA FP	0.1	2.5	2.3	2.9	x	5.7	1.3	-2.6	1.8	1.3	x
Ecoli growth	0.67	0.62	0.67	0.7	x	0.7	0.69	0.75	0.69	0.69	x
FGF22 binding	i	x	i	x	i	i	x	i	i	i	i
Vif A3G	-2%	2%	x	-1%	x	78%	-4%	-1%	x	10%	x
AF4-AF9 inh	-5.4	x	-0.4	x	-4.2	-9.1	x	-2.3	2.1	-1.0	11
Ecoli rRNA inh	7	x	9	x	2	-3	x	1	3	9	-4
Ecoli rRNA inh OD600	6	x	18	x	10	2	x	5	12	10	-33
Ecoli rRNA inh RFP	-2.0	x	8.6	x	-1.9	0.2	x	-1.8	-1.7	-4.7	21
